Bioassay records: PubChem, National Center for Advancing Translational Sciences (NCATS)
HPGD inh = blocks human HPGD enzyme activity; Potency, µM, for inactives: at the top dose activity change, negative = inhibition, actives largely listed as inhibitors; P15428; actives 4.3% (n = 150,000); purified HPGD, NADH fluorescence kinetic, PGE2 substrate; AID 894; active = well fitted inhibition curve with a large enough effect (not every such curve was filed as active); inconclusive = small, poorly fitted or top-dose-only effect, or another doubt; inactive = no such curve, though single readings can be large or run the other way;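 also: top concentration of the series not given in the record; plate controls included wells without enzyme; inactives centre near -10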
Target sequence (P15428 whole entry, looked up): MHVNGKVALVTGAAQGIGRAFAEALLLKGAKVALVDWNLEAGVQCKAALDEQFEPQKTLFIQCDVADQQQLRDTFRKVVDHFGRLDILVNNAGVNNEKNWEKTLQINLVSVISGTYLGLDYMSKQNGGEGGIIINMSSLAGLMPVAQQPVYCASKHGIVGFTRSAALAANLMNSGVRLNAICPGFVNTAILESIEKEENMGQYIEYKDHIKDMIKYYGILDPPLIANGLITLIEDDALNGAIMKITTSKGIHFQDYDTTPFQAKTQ
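NADH formation kinetics: reaction with 30 uM PGE2 and 1 mM NAD+ (final), 20 nM enzyme, Tris-HCl pH 8 with Tween 20, after 15 min compound preincubation at room temperature. Fluorescence change, last versus first of five reads.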
Starred values were filed as active, the others as inactive; ? = inconclusive; & = joins results of further samples. % is scaled to controls: 0 for no effect and ±100 for the full control effect; potency is read from the fitted curve at half-maximal effect. These rows are one share of the data; the hit share may differ from the screen's.

molecule | HPGD inh
CCCCN(CC)Cc1ccc(CNC(=O)Nc2ccccc2)o1 | -8%
COCCN1C=C2C(=O)C(C)(OC(=O)C3CCCC3)C(=O)C(c3ccccc3)=C2C=C1CCCC(=O)OC (stereo unspecified) | -4%
O=C(CSc1nnc(-c2ccncc2)n1C1CCCCC1)Nc1ccccc1 | -13%
COC(=O)c1c(NC(=S)Nc2cc(OC)c(Cl)cc2OC)sc2c1CCCCC2 | ?
CCN(CC)CCCN1C(=O)C(=O)/C(=C(/O)c2ccc3c(c2)OCCO3)C1c1ccc(C)o1 (stereo unspecified) | -15%
Cc1ccc([N+](=O)[O-])cc1NC(=O)CN(C1CCCCC1)S(=O)(=O)c1ccc(Cl)cc1 | -16%
CCOc1ccc2[nH]c(=O)c(CN(Cc3cccnc3)C(=O)Nc3ccccc3OC)cc2c1 | -26%
O=C(NCCN1C(=O)S/C(=C\c2ccccc2)C1=O)c1cc(S(=O)(=O)N2CCOCC2)c(Cl)cc1Cl | -10%
O=C1C(Nc2cccc(O)c2)=C(N2CCCCC2)C(=O)c2ccccc21 | -11%
Nc1nc(SCc2ccc(Cl)cc2)[nH]c(=O)c1-c1ccccc1 | -6%
C=CCC(O)(C#Cc1ccccc1)c1ccccc1 (stereo unspecified) | -4%
CC(=O)c1cc(F)c(N2CCN(C(=O)c3ccco3)CC2)cc1C | -9%
Fc1ccccc1Cc1nnc2n1N=C(c1ccc(Cl)cc1)CS2 | -15%
CC(C)c1cc(C(=O)N/N=C/c2cccnc2)n[nH]1 | -19%
O=C(NCc1ccncc1)C(=O)NCC(c1ccco1)N1CCN(c2ccc(F)cc2)CC1 (stereo unspecified) | -17%
CC(C)(C)C(=O)N1CCN(c2ccc([N+](=O)[O-])c(NCC3CCCO3)c2)CC1 (stereo unspecified) | -19%
CCOC(=O)CC(=O)CSc1ncnc2c1cnn2-c1ccccc1 | -19%
CCOCc1cnc(C)nc1NCC(=O)c1c(C)[nH]c2ccc(OC)cc12 | -8%
CC1=NCCN1S(=O)(=O)c1cc(Cl)ccc1Cl | -8%
CC(=O)N1CCN(c2ccc(Oc3ncnc4sccc34)cc2)CC1 | -1%

More structures.
molecule | HPGD inh
Cc1ccc(C(=O)NCC(=O)NCC(=O)OCC(=O)c2ccc(Br)cc2)cc1 | -15%
CC1CN(Cc2cc(=O)[nH]c(C(C)C)n2)CC(C)O1 (stereo unspecified) | 1%
O=C(CN(C(=O)CSc1nnc(COc2ccccc2)o1)c1ccc(F)cc1)NC1CCCC1 | -6%
Cc1ccc2oc(=O)cc(CN3CCOCC3)c2c1 | -10%
Cc1ccc(C(=O)c2cc3ccccc3o2)cc1 | ?
Cc1nn(-c2ccccc2)c(N)c1Sc1ccccc1[N+](=O)[O-] | -11%
CCOc1ccc(-c2c[n+]3c(n2-c2ccccc2)CCCCC3)cc1 | -4%
CCC1=C(OC(=O)N(CC)CC)N2C(=O)OC(=NCC(=O)OC)[C@]2(C)[C@H]2C1=CC[C@H]1C(=O)N(C)C(=O)[C@H]12 | -9%
Cc1ccccc1-c1nc(CS(=O)CC(=O)NCCN2CCOCC2)c(C)o1 (stereo unspecified) | -8%
Cc1nc2c(OCc3ccccc3)cccn2c1CC#N | -19%&-9%
COC(=O)CCC(=O)c1oc2ccccc2c1N | -21%
COCCNC(=O)CCc1c(C)nc2c(-c3ccc(F)cc3)c(C)nn2c1C | -12%
O=C1c2ccccc2C(Nc2ccc(F)c(Cl)c2)N1Cc1ccco1 (stereo unspecified) | ?
Cc1ccn2c(CN3CCOCC3)c(-c3ccccc3)nc2c1 | -29%
COc1ccc(N2CCN(C(=O)CSc3nnc(-c4cccnc4)n3-c3ccc(F)cc3)CC2)cc1 | -4%
CCCC[C@@H]1C[C@H]1C(NC(=O)c1ccccc1)c1ccc(Cl)cc1 (stereo partly specified) | -16%
O=C1CC(N2CCOCC2)C(=O)N1c1ccc2c(c1)OCO2 (stereo unspecified) | -9%
CC(=O)Nc1sc(N/N=C\c2ccccc2F)nc1-c1cccs1 | -21%
O=C(CCc1ccccc1O)N/N=C/c1ccc(Sc2cccc3cccnc23)o1 | -25%
O=C(COC(=O)Cc1c[nH]c2ccccc12)Nc1cccc2ccccc12 | -11%

Additional structures follow.
molecule | HPGD inh
CCn1c2ccccc2c2cc(NC(=O)COC(=O)Cc3cn4ccsc4n3)ccc21 | ?
Cc1ccc(C)c(N2CCN(C(=O)CCn3c(=S)[nH]c4cc5c(cc4c3=O)OCO5)CC2)c1 | -6%
O=C(CSc1cc(Cl)ccc1Cl)NC1CCCc2ccccc21 (stereo unspecified) | -23%
Cc1noc(/C=C/c2ccco2)c1S(=O)(=O)N1CCC(C(=O)N2CCc3ccccc32)CC1 | -21%
Cc1ccc(SCCC(=O)N2CCOCC2)cc1 | -6%
Cc1ccccc1NC(=O)CSc1nc2cc3c(cc2cc1C)CCC3 | -8%
N#CC1=C2Sc3ccccc3N2CCCC1=O | -11%
CCCc1nc(SCC(=O)N2CCc3ccccc3C2)c2ccccc2n1 | -22%
CCn1c(CNC(=O)COc2ccc(C(C)C)cc2)nnc1SCC(=O)Nc1ccc(F)cc1 | -12%
COCCN(CCOC)S(=O)(=O)c1ccc(C(=O)Nc2nc3c(s2)CCc2ccccc2-3)cc1 | -29%
N/C(=N\N=C\c1ccnc2ccccc12)SC1CC(=O)N(c2ccc(Br)cc2)C1=O (stereo unspecified) | -22%
N#Cc1cc(C#N)c(N2CCN(c3cccc(Cl)n3)CC2)nc1N | ?
COc1ccc(C2=NN(CN3C(=O)C(=O)c4ccccc43)C(c3ccc(OC)cc3)C2)cc1 (stereo unspecified) | -23%
COc1ccccc1N1CCN(C2CCN(C(=O)COc3cccc(C)c3)CC2)CC1 | -10%
COc1cccc(CNC(=O)CCS(=O)(=O)c2cccc3nonc23)c1 | -4%
Cc1ccc(C)c(S(=O)(=O)NCc2cccnc2)c1 | -8%
O=C(NCc1ccccc1)C1CCC1 | 20µM*
O=C(Nc1ccccc1)c1cccnc1N1CCCC1 | -6%
CCN1C(=O)N[C@@H](c2cccc(C(F)(F)F)c2)[C@H](C(C)=O)[C@H]1C | -2%
CCOC(=O)N1CCC(NC(=O)C(CC(C)C)NC(=O)C2CCC(C)CC2)CC1 (stereo unspecified) | 5%

6 structures already listed, sorted by count of non-hydrogen atoms, low to high:
molecule | HPGD inh
O=C(Nc1ccccc1)c1cccnc1N1CCCC1 | -6%
O=C(CSc1cc(Cl)ccc1Cl)NC1CCCc2ccccc21 (stereo unspecified) | -23%
COc1cccc(CNC(=O)CCS(=O)(=O)c2cccc3nonc23)c1 | -4%
COc1ccccc1N1CCN(C2CCN(C(=O)COc3cccc(C)c3)CC2)CC1 | -10%
Cc1ccc(C)c(N2CCN(C(=O)CCn3c(=S)[nH]c4cc5c(cc4c3=O)OCO5)CC2)c1 | -6%
CCn1c(CNC(=O)COc2ccc(C(C)C)cc2)nnc1SCC(=O)Nc1ccc(F)cc1 | -12%

Later entries.
molecule | HPGD inh
COc1ccc2c(c1OC)C(=O)OC2Nc1nc(-c2ccccc2)cs1 (stereo unspecified) | 2%
O=C(NC1CCCCC1)C(c1ccc2ncccc2c1)N(Cc1ccc(F)cc1)C(=O)c1cccs1 (stereo unspecified) | 1%
COc1ccccc1NC(=O)c1ccc(NC(=O)COC(=O)CC(NC(=O)c2ccccc2Cl)c2ccccc2)cc1 (stereo unspecified) | -12%
NC(=O)c1noc(C(=O)N(CC(=O)NC2CCCC2)Cc2ccc3c(c2)OCO3)c1N | -2%
CCCCN(CC)CCCNC(=O)CC1Oc2ccccc2NC1=O (stereo unspecified) | 3%
O=C1COc2ccc(C(=O)CSc3nnc(Cc4cccs4)n3-c3ccc(Cl)cc3)cc2N1 | -19%
COc1cc(/C=C(\C#N)c2nc3ccccc3[nH]2)c([N+](=O)[O-])cc1OCc1ccccc1 | ?
COc1cccc(NC(=O)c2oc3ccccc3c2NC(=O)C(C)(C)C)c1 | ?
COc1ccccc1NC(=O)c1ccc(NC(=O)COC(=O)CCC2CCCC2)cc1 | -46%
COc1cc2oc(=O)cc(-c3cccc(-c4ccc(C(C)=O)cc4)c3)c2c(OC)c1OC | -13%
O=[N+]([O-])c1cc(Cl)cc2c1nc(NCCO)c1ccccc12 | -12%
CC(=O)N1CCN(CCN=CC2=C(O)CC(C)(C)CC2=O)CC1 | -13%
O=C(c1ccccc1)c1ccc2nc(-c3ccc(NC(=O)c4ccccc4F)cc3)[nH]c2c1 | -12%
COc1ccc(/C=N/Nc2nc3ccccc3c(=O)[nH]2)cc1 | ?
Fc1ccc(-c2n[nH]c(=S)n2CC2CCCO2)cc1 (stereo unspecified) | -18%
CN(C)C(=O)CN(c1ccc(F)c(Cl)c1)S(C)(=O)=O | -17%
O=C(c1ccc(S(=O)(=O)N2CCCCC2)cc1)N1CCN(c2ccccc2)CC1 | -9%
CCOc1ccc(-c2nc(CSCC(=O)NC3CCCc4ccccc43)c(C)o2)cc1 (stereo unspecified) | ?
CCOC(=O)c1c(NC(=O)C2C3C=CC(CC3)C2C(=O)O)sc(C)c1CC (stereo unspecified) | -16%
COCCCNCC(=O)Nc1sc(C)c(C)c1C(=O)OC | -26%

(continued)
molecule | HPGD inh
CCOC(=O)c1ccc2c(c1)sc(=NC(=O)c1ccco1)n2CCOC | ?
CCN=C1Sc2nc3ccc(OCC)cc3cc2CN1CCOC | -28%
Cc1ccc(SCCCCN2CCNCC2)cc1 | -7%
CC(C)c1ccc(-c2noc(C3CCCN(C(=O)c4ccc(F)cc4F)C3)n2)cc1 (stereo unspecified) | -9%
Cc1cc(SCNC(=O)c2ccccc2)ncn1 | -9%
Oc1[nH]c2ccccc2c1C=NCC1CCCO1 (stereo unspecified) | -6%
CCN1C(=O)c2cccc3c(NC(=O)c4ccccc4)ccc1c23 | -10%
Cc1ccc(NC(=O)CC2SC(=O)NC2=O)cc1 (stereo unspecified) | 2%
O=S(=O)(c1ccccc1)c1ccccc1/C=N\O | -27%
CN(C)C(=O)c1cnc(Sc2ncc(C(F)(F)F)cc2Cl)n1C | -25%
O=C(CN1CCOCC1)Nc1cccc(C(=O)Nc2cccc(C(F)(F)F)c2)c1 | -3%
COc1ccc(C(=O)Nc2scc(-c3ccc(Cl)cc3Cl)c2C(N)=O)cc1 | ?
CC(C)CCOc1ccc(NC(=O)C2OC3OC(C)(C)OC3C3OC(C)(C)OC23)cc1 (stereo unspecified) | -8%
COc1ccc2oc(=O)c(C(=O)N3c4ccccc4CC3C)cc2c1 (stereo unspecified) | -2%
COc1cc(C2c3c(oc4ccccc4c3=O)C(=O)N2CCN2CCOCC2)cc(OC)c1OC (stereo unspecified) | 3%
CCc1nnc(NC(=O)CSc2nnc(CNc3ccc(Cl)cc3)o2)s1 | -27%
NCCOc1ccccn1 | -14%
O=C(Nc1cccc(Cl)c1)Nc1ccc(Br)cc1F | -4%
Cc1ccnc(NS(=O)(=O)c2ccc(NC(=O)C3CCCCC3)cc2)n1 | -6%
Cc1c(Cl)cnc(NC(=O)COC(=O)C(NC(=O)c2ccco2)C(C)C)c1Cl (stereo unspecified) | -8%

(cont.)
molecule | HPGD inh
CN(C)C(=O)CSc1cccc2cccnc12 | ?
Cc1nn(-c2ccccc2)c(Cl)c1/C=C1\SC(=S)NC1=O | 16µM*
CN(C)C(=O)CSC1c2ccccc2C(=O)N1c1ccccc1 (stereo unspecified) | -3%
COCCn1c(SCC(=O)Nc2cccc(S(N)(=O)=O)c2)nc2ccccc21 | -4%
CCCCN1CCc2c([nH]c3ccccc23)C1=O | ?
Cn1c(-c2ccc(F)cc2)cnc1NCc1ccccc1 | -30%
COc1cc(C2C(C#N)=C(N)OC3=C2C(=O)CCC3)c([N+](=O)[O-])cc1OC (stereo unspecified) | ?
CCn1c(=O)cc(SCC(=O)N2CCN(c3ccccc3F)CC2)c2ccccc21 | -17%
C=C(C)C1CC=C(CN2CCC(C(=O)OCC)CC2)CC1 (stereo unspecified) | 0%
COc1ccccc1-c1nnc(SC/C(O)=C(\C#N)c2nc3ccccc3[nH]2)n1C1CCCCC1 | 35µM*
O=C(/C=C/c1ccccc1)N/C(=C/c1ccccc1)C(=O)Nc1ccc(C(=O)O)cc1 | -2%
CCOc1cc(N2CCOCC2)c(OCC)cc1NC(=O)CCS(=O)(=O)c1ccc(Cl)cc1 | -7%
C=CCOC(=O)N1CCN(c2cccc(C(F)(F)F)c2)CC1 | -8%
O=C(O)COCC(=O)Nc1ccc2c(c1)CCC2 | -8%
CC(C)NC(=O)/C(=N\O)c1ccccc1 | -6%
COc1cc(C(=O)NC(=S)Nc2ccc(NC(=O)c3ccco3)cc2)cc(OC)c1OC | -13%
O=C(CCCOc1ccc(Cl)cc1Cl)NCC1CCCO1 (stereo unspecified) | 11µM*
CCNc1ccc(S(=O)(=O)C(F)(F)F)cc1NC(=O)C12CCC(CC1)C2 | -6%
O=c1cc(-c2ccccc2)n(S(=O)(=O)c2ccccc2)o1 | -18%
Cc1ccccc1OC(C)c1nc(-c2ccccc2)no1 (stereo unspecified) | -8%

Other results
molecule | HPGD inh
CSc1nc(-c2ccccc2)c(-c2ccccc2)[nH]1 | ?
CCOC(=O)c1cc(-c2ccccc2)sc1NC(=O)c1ccc(OC)cc1 | 3.5µM*
Cc1ccc2cccc(Oc3cnccn3)c2n1 | -5%
O=C(Nc1cc(Sc2ccccn2)cc([N+](=O)[O-])c1)c1cccc(F)c1 | ?
COC(=O)CC1C(=O)NC2CCCCC2N1C(=O)c1ccccc1 (stereo unspecified) | 0%
Cc1ccc2cc(CN(Cc3nnnn3C3CCCC3)C3CCCCC3)c(=O)[nH]c2c1C | -8%
